LANA-H2A inh: blocks KSHV LANA binding to histone H2A/H2B; Q9QR71; actives 0.6% (n = 320,000); cell-free LANA-H2A/H2B peptide, fluorescence polarization; inhibition, % (concentration not given with the values); in the data active = inhibition mostly above about 10%, no sharp cut-off; inactive = mostly below about 6.7%;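 also: stock transfer was 7.5 nL into about 10 µL; 0% = median of vehicle wells and 100% = median of positive control wells; one replicate is shown; the record names a cut of 25% in any replicate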
Beta2AR agonist: human beta-2 adrenergic receptor agonism by FAP; P07550; Am2.2-beta2AR cells, FAP receptor internalization, flow cytometry; reference of the scale not given here; response, % (no concentration beside the values); actives 0.43% (n = 340,000); AID 504454;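 active = response above a set limit, near 3 SD of response in nonfluorescent compounds, cut at about 42% in these data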;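 also: stock transfer was 100 nL into about 11 µL; a reference agonist was the positive control; negative values mostly stem from fluorescent compounds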
Target sequence (P07550 whole entry, looked up): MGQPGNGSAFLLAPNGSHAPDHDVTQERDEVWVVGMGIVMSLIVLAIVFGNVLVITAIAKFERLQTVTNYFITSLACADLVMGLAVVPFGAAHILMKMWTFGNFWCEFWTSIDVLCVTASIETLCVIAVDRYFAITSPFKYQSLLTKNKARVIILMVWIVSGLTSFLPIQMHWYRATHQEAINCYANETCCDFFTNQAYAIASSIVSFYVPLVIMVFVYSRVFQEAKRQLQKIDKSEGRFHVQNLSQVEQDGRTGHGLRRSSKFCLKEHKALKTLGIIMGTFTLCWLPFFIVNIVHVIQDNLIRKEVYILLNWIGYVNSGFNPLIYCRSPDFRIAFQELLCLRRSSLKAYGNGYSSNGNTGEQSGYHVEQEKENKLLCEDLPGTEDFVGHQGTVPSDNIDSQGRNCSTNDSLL
UCH37 DUB inh: human UCH37 deubiquitinating enzyme inhibition; purified proteasome/UCH37, Ub-AMC cleavage fluorescence; inhibition, % (no concentration beside the values); actives 0.33% (n = 330,000);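 active = mean of two replicates above 20%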;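 also: 0% = compound-free wells with enzyme and 100% = wells lacking proteasome; stock transfer was 100 nL into about 20 µL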
Target sequence (Q9Y5K5 whole entry, looked up): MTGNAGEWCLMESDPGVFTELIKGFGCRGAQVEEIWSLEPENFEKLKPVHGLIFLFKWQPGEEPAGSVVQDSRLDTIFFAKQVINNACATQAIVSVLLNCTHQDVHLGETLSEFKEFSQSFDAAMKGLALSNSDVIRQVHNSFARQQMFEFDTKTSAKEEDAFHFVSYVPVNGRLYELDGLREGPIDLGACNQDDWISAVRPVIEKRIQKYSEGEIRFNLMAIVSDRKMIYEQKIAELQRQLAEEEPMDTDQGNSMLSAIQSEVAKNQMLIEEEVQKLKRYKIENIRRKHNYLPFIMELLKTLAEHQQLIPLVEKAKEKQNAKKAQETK
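Schedule: 30 min plus 25 min, room temperature / Material: human UCH37 within purified proteasomes / Technique: AMC fluorescence intensity at 355/460 nm / Buffer or medium: pH 7.4 Tris-HCl (50 mM) with ovalbumin, ATP-MgCl2, DTT / Controls: wells without proteasome as full block, compound-free enzyme plus substrate as uninhibited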
FGF22 binding: shifts melting point of recombinant human FGF22; Q9HCT0; recombinant FGF22 thermal shift, SYPRO orange fluorescence; percent of sucrose octasulfate shift, DMSO zero; calls only at 9.99 µM; actives 1.5% (n = 340,000);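 active = melting point raised past a set limit in the mean and every replicate; three in four hits are not shown here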
E coli growth: inhibitors of Escherichia coli growth | OD600, 23 h; stronger effect = lower value | OD600 absorbance (concentration not given with the values) | actives 0.21% (n = 330,000) | AID 1053175;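 active = OD600 absorbance below the run mean of sample wells minus 3.6 SD, in any replicate, cut at about 0.56 in these data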;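 also: stock transfer was 300 nL into about 60 µL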
HNF4A DNA FP: change in binding of human HNF4 alpha to DNA; HNF4a-FITC DNA binding, fluorescence polarization, 1 h; actives 0.3% (n = 360,000); activity change, % at 10 µM; P41235; in the data active = activity change above about 30%, passing the limit was not always enough;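 also: controls were the assay level and a saturating level of protein; the project sought stronger binding though the title names inhibitors; some compounds called inactive have numbers as strong as hits; positive values seem to mean higher polarization but the record does not say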
ALR inh: inhibitors of human sulfhydryl oxidase ALR. P55789. purified ALR, DTT oxidation, H2O2 HRP-luminol luminescence. actives 3.8% (n = 290,000). inhibition, % (concentration not given with the values);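 active = mean and each replicate at 75% or more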;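 also: stock transfer was 7.5 nL into about 7.5 µL; 0% = neutral wells and 100% = wells with inactivated enzyme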
Target sequence (P55789 whole entry, looked up): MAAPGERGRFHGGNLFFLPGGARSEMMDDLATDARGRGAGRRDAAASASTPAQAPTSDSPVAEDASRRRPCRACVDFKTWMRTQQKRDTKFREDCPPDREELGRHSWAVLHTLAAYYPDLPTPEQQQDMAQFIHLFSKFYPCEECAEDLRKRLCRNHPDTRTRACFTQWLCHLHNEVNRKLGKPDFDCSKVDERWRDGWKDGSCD
* hit, by the source's call; i = inactive; . = not tested or not shown. A portion of the library. The share of hits here may be higher or lower than overall.

Preview:
ALR inh | FGF22 binding | HNF4A DNA FP | E coli growth | LANA-H2A inh | Beta2AR agonist | UCH37 DUB inh | molecule
6 | . | -35 | . | -1.8 | 3 | . | CCCOc1cccc(C2C(C(=O)c3ccco3)=C(O)C(=O)N2c2nnc(C)s2)c1 (centres undefined)
-11 | . | 1.5 | 0.72 | -1.0 | 0 | 3.5 | Cc1ccc(C(C)C)c(OCCNC(=S)Nc2cccc3ccccc23)c1

The whole of this part (from the top)
ALR inh | FGF22 binding | HNF4A DNA FP | E coli growth | LANA-H2A inh | Beta2AR agonist | UCH37 DUB inh | molecule
6 | . | -35 | . | -1.8 | 3 | . | CCCOc1cccc(C2C(C(=O)c3ccco3)=C(O)C(=O)N2c2nnc(C)s2)c1 (centres undefined)
-11 | . | 1.5 | 0.72 | -1.0 | 0 | 3.5 | Cc1ccc(C(C)C)c(OCCNC(=S)Nc2cccc3ccccc23)c1
-6 | . | -1.8 | 0.76 | -1.5 | -3 | 5.5 | CN(C)c1nc(OCC(=O)NC(C)(C)C)nc(N(C)C)n1
. | i | 2.8 | . | . | -6 | . | CCc1cc2c(cc3c(=O)n(CC(=O)NCCCN4CC(C)CC(C)C4)ncn32)s1 (centres undefined)
-21 | i | 1.9 | 0.65 | 3.1 | 8 | 6.0 | CCOCc1c(C(=O)Nc2ccc(OC)nc2)oc2ccccc12
-8 | . | -3.3 | 0.77 | 0.4 | 0 | 0.7 | COc1ccc(Oc2ncnc3c2oc2ccc(Br)cc23)cc1
-5 | i | -3.2 | 0.69 | 4.7 | -12 | 3.3 | Cc1ccc(S(=O)(=O)N(CC(O)CN2C(=O)NC(C)(C)C2=O)c2cccc([N+](=O)[O-])c2)cc1 (centres undefined)
2 | . | 2.9 | 0.64 | -4.4 | 3 | 3.1 | COc1cc(OC)cc(C(=O)Nc2ccc(S(=O)(=O)N(C)C)cc2)c1
-8 | . | . | 0.77 | -4.8 | . | 1.3 | CC1(C)CC[C@]2(CO)[C@@H](O)C[C@]3(C)C(=CCC4[C@@]5(C)CC[C@H](O)C(C)(C)C5CC[C@]43C)[C@@H]2C1 (some centres undefined)
. | i | -2.3 | . | . | 21 | . | Cc1ccc(S(=O)(=O)N2CCN(C(=O)C3CCN(c4ncnc5sc(C)c(C)c45)CC3)CC2)c(C)c1
-5 | i | 2.3 | 0.66 | 1.3 | -12 | 2.1 | CCCCN(C)CCCNC(=O)CCn1nc(-c2ccccc2)ccc1=O
-19 | i | 3.5 | 0.69 | 10 | 1 | -0.7 | CSc1ccc(-c2nc(CN(C)C3CCOC3)c(C)o2)cc1 (centres undefined)
. | . | 1.2 | 0.63 | 1.5 | 72* | -1.6 | COc1cc(CNCCc2c[nH]c3ccccc23)ccc1OCc1ccc(F)cc1
. | . | -1.2 | 0.66 | 3.7 | -7 | 4.9 | Cc1ccc2c(c1)C(=O)C(=O)N2CC(=O)OC(C)C
1 | i | 1.4 | . | 0.8 | -7 | . | COc1ccc(/C=N/NC(=O)c2nc(-c3ccccc3)n(-c3ccccc3)n2)cc1OC
. | . | 1.3 | 0.68 | . | 22 | 2.3 | CCOC(=O)c1c(C)oc2c1c(CN1CCN(CCO)CC1)c(O)c1ccccc12
1 | i | 0.8 | 0.7 | -2.4 | -2 | 1.0 | CCN(CC)CC(C)CNC(=O)CN1C(=O)CSc2ccc(S(=O)(=O)N3CCOCC3)cc21 (centres undefined)
-4 | . | -4.6 | 0.67 | -1.2 | -1 | 1.4 | Cc1c(N)cc(C(=O)N2CCOCC2)cc1[N+](=O)[O-]
. | i | 2.4 | 0.7 | -2.4 | 6 | 12 | O=C(/C=C/c1ccccc1)Nc1sc2c(c1C(=O)O)CCC2
43 | . | -1.9 | 0.67 | 0.7 | 12 | 6.4 | O=c1[nH]c2ccccc2n2c(=S)[nH]nc12
50 | i | -7.9 | 0.63 | -4.8 | 10 | 5.4 | Cc1cccc(/C=C/C(=O)c2ccc(NC3=NCCCS3)cc2)c1
-27 | i | 1.9 | 0.67 | 3.2 | -2 | 4.9 | O=C1C2C3C=CC(C2C(=O)N1CCO)C1C(=O)N(CCO)C(=O)C31 (centres undefined)
-2 | i | 2.5 | 0.68 | -2.9 | -6 | 0.6 | CN(C)C(=O)c1cc(C(=O)c2ccccc2F)c[nH]1
98* | i | -4.1 | 0.65 | 0.7 | 6 | 8.8 | CC(=O)CSc1cc(-c2ccccc2)nc2ncnn12
2 | i | 0.8 | 0.66 | -2.3 | -1 | -10 | CC(=O)C1=C(O)C(=O)N(c2nccs2)C1c1ccccc1F (centres undefined)

ALR inh | FGF22 binding | HNF4A DNA FP | E coli growth | LANA-H2A inh | Beta2AR agonist | UCH37 DUB inh | molecule
-1 | i | 2.1 | 0.68 | 5.6 | 2 | -0.4 | O=C(COC(=O)c1cc[n+]([O-])cc1)Nc1ccc(Br)cc1
-14 | i | 2.5 | 0.72 | -1.9 | -15 | -0.7 | O=C(CCNC(=O)c1ccc(Cl)cc1)Nc1ccc(S(=O)(=O)N2CCCCC2)cc1
-15 | i | -1.9 | 0.66 | 2.4 | 9 | -5.4 | CCN1C(=O)N(CC)c2cccc3cccc1c23
11 | i | 3.2 | 0.65 | -2.3 | -10 | 3.8 | COc1ccc(N2C(=O)/C(=C\c3ccco3)N=C2SCC(N)=O)cc1Cl
97* | i | -1.2 | 0.67 | 2.5 | 2 | 8.3 | CCc1ccc(NC(=O)CSc2nc(=O)n(CCCN(C)C)c3c2CCC3)cc1
12 | i | -8.2 | 0.67 | -3.5 | 20 | 1.0 | N#Cc1c(N)n(Cc2ccccc2)c(=O)c2cc([N+](=O)[O-])ccc12
-2 | . | 3.1 | 0.72 | -4.9 | 2 | 0.4 | Cc1ccc(-n2nc(-c3cccs3)cc2C(=O)NCC2CCCO2)c(C)c1 (centres undefined)
-7 | . | 3.7 | 0.73 | -2.8 | -6 | -9.8 | COc1cc(OC)cc(C(=O)NCC(=O)OCC(=O)/C=C2/N(C)c3ccccc3C2(C)C)c1
98* | . | -0.1 | . | -8.7 | -5 | . | S=c1[nH]ncn1/N=C/c1ccc(Br)cc1
. | . | 1.6 | 0.7 | 0.0 | -3 | 4.9 | S=C(Nc1ccc(Cl)cc1)c1nc2ccccc2[nH]1
2 | i | 2.8 | 0.69 | -0.7 | 4 | 5.4 | N#C/C(=C\c1ccc(F)cc1F)S(=O)(=O)c1ccccn1
-24 | i | 1.7 | 0.7 | 2.1 | 2 | -76 | COCC(C)NC(=O)c1cc2cc(OC)ccc2[nH]1 (centres undefined)
. | i | 3.2 | 0.64 | 1.1 | -2 | 4.4 | COc1ccc(NC(=O)CSc2nncn2C)cc1
-14 | . | 2.6 | 0.69 | -6.5 | -2 | 0.0 | Cn1nccc1C(=O)OCC(=O)Nc1nc(-c2ccccc2)cs1
0 | i | 0.5 | 0.68 | -6.4 | -3 | 3.2 | CC(=O)c1ccc(OCCOc2ccc(C#N)cc2)cc1
2 | i | 1.4 | 0.64 | -0.8 | 8 | 1.5 | COc1ccc(NC(=O)CN(C)CC(=O)Nc2cccc(F)c2)cc1Cl
. | i | -3.7 | . | -2.0 | 7 | . | CCc1cc(CC)c(/C=N/NC(N)=O)c(CC)c1
-5 | . | 26 | . | -4.5 | 17 | -1.4 | COC(=O)C1=C(C)N(CC2CC2)C(=NCc2cccc(C(F)(F)F)c2)N[C@H]1c1ccccc1
. | i | -2.2 | 0.66 | 3.9 | -2 | 2.6 | Cc1ccc(N2CC(C(=O)NCCN3CCOCC3)CC2=O)cc1C (centres undefined)
1 | i | -1.7 | 0.68 | -17 | -34 | -4.3 | CNc1ncc(C(=O)c2ccc(-c3ccccc3)cc2)s1
-2 | . | -1.2 | 0.69 | -0.3 | -18 | -151 | CCC(=O)Nc1ccc2c(c1)C(=O)N(C)C2=O
. | . | -72 | . | 9.9 | -15 | . | CC(Nc1cccc2ccccc12)C(=O)N/N=C/c1ccccn1 (centres undefined)
-4 | . | 0.0 | . | 2.4 | 9 | 3.5 | O=C1N=C2SCCN2/C1=C\c1c(Cl)cccc1Cl
47 | i | -0.8 | 0.75 | 29* | -8 | 4.9 | CCN(CC)c1ccc(NC(=O)CCc2nnc3ccc(N4CCCC4)nn23)c(C)c1
8 | i | -3.1 | . | -4.0 | 1 | . | O=C(O)c1cc2c(cn1)[nH]c1ccccc12

ALR inh | FGF22 binding | HNF4A DNA FP | E coli growth | LANA-H2A inh | Beta2AR agonist | UCH37 DUB inh | molecule
-4 | . | 0.3 | 0.7 | 3.6 | -8 | 3.8 | CC1(C)CC2CC(C)(CN2S(=O)(=O)c2cccc(N)c2)C1 (centres undefined)
-19 | . | -3.4 | 0.63 | -2.7 | -5 | 3.4 | CC(OCC(O)CN(C)CCOc1ccccc1)c1ccc(Cl)cc1 (centres undefined)
1 | . | 1.2 | 0.73 | 3.6 | -17 | 2.1 | CN(C)c1nc(NCc2ccccc2)nc(Oc2ccc(=O)[nH]n2)n1
1 | . | 0.7 | 0.61 | -0.6 | 1 | 1.6 | Cc1ccc(C(=O)N(CC(=O)Nc2ccc(Cl)c(Cl)c2)Cc2ccco2)cc1
4 | i | -5.7 | 0.65 | -1.7 | 7 | 3.1 | NC(=O)c1ccccc1NC(=O)CC12CC3CC(CC(C3)C1)C2
16 | i | -1.8 | 0.69 | 6.0 | -8 | 3.4 | Cn1ncc(N=Cc2ccc([N+](=O)[O-])cc2)c1C(=O)Nc1ccccc1
2 | . | -0.3 | 0.76 | 8.4 | -12 | 11 | CN(CCc1ccccn1)C(=O)c1nn2c(C(F)(F)F)cc(-c3ccco3)nc2c1Cl
89* | i | -1.0 | 0.64 | -2.3 | -4 | -26 | Brc1ccc(-c2ncc3ccccn23)cc1
-1 | . | 2.5 | . | 2.7 | 1 | . | CCOC(=O)c1nc(Nc2ccc(C(=O)OC)cc2)c2ccccc2n1
-17 | i | -5.1 | 0.62 | -0.7 | 4 | 0.9 | CCC(C)C(NC(=O)c1ccc(Cl)cc1)C(=O)Nc1cccnc1 (centres undefined)
16 | i | 2.5 | . | 0.2 | -1 | . | Clc1ccc(CN2CCN(/N=C/c3ccco3)CC2)cc1
8 | i | -0.2 | 0.71 | 0.6 | -7 | -0.4 | O=C(CN(C(=O)CNC(=O)c1cccs1)c1ccccc1F)NC1CCCC1
0 | i | 16 | . | 4.0 | 9 | -46 | COc1ccc(COc2cc(-c3cccc(OC)c3)nc3ccc(N)cc23)cc1
. | i | 7.0 | 0.7 | . | 0 | 2.0 | CC(C)N(CC#CCC(O)(c1ccccc1)c1ccccc1)CCO
. | i | 8.2 | 0.68 | -7.4 | -2 | -2.7 | COc1cccc(NC(=O)CSc2nnc(C3CCCCC3)n2N)c1
1 | i | -0.5 | 0.68 | 1.7 | 2 | -31 | CCCCn1nc2cc(C(=O)NCc3ccc4c(c3)OCO4)ccc2c1OCC
. | i | 2.2 | . | -2.5 | 1 | . | O=C(Cc1ccc(Cl)cc1)NCCc1c[nH]c2ccccc12
10 | i | 1.4 | 0.66 | 1.3 | 23 | 3.2 | CC(C)(C)c1ccc(NS(=O)(=O)c2ccc(N)cc2)cc1
-1 | . | 0.8 | 0.66 | 2.5 | -3 | -0.4 | Cn1c(N2CCN(C(=O)Nc3ccc(F)cc3)CC2)nc2ccccc21

Profiles as entered above. Order of values: ALR inh | FGF22 binding | HNF4A DNA FP | E coli growth | LANA-H2A inh | Beta2AR agonist | UCH37 DUB inh
Brc1ccc(-c2ncc3ccccn23)cc1 is listed with 89* | i | -1.0 | 0.64 | -2.3 | -4 | -26
Cc1ccc(C(=O)N(CC(=O)Nc2ccc(Cl)c(Cl)c2)Cc2ccco2)cc1 is listed with 1 | . | 0.7 | 0.61 | -0.6 | 1 | 1.6
O=C(CN(C(=O)CNC(=O)c1cccs1)c1ccccc1F)NC1CCCC1 is listed with 8 | i | -0.2 | 0.71 | 0.6 | -7 | -0.4
CCCCn1nc2cc(C(=O)NCc3ccc4c(c3)OCO4)ccc2c1OCC is listed with 1 | i | -0.5 | 0.68 | 1.7 | 2 | -31
CC(C)(C)c1ccc(NS(=O)(=O)c2ccc(N)cc2)cc1 is listed with 10 | i | 1.4 | 0.66 | 1.3 | 23 | 3.2
